# VACV Venus inh: inhibitors of vaccinia virus (Venus reporter); Vaccinia virus Venus reporter expression, fluorescence; Potency, µM (series often up to 36.5 µM), without a hit: top-dose activity change, negative = inhibition, most hits filed as inhibitors; 330,000 tested, 0.46% active; active means well fitted inhibition curve with a large enough effect; inconclusive means small, poorly fitted or top-dose-only effect; inactive means no such curve, though single readings can be large or run the other way; tested in A549 cells; also: nearly all actives have a fitted effect of over 30% in size; inactives centre near -10
# Vaccinia mCherry: inhibitors of vaccinia virus infection (mCherry reporter signal); 310,000 tested, 0.63% active; Vaccinia virus mCherry reporter infection, fluorescence; about a quarter of the inactives have no number; Potency, µM (highest dose often 36.5 µM), for the others: at the top dose activity change, negative = inhibition, usual class: inhibitors; active = well fitted inhibition curve with a large enough effect; inconclusive = small, poorly fitted or top-dose-only effect; inactive = no such curve, though single readings can be large or run the other way; tested in A549 cells; also: nearly all actives have a fitted effect of over 35% in size; inactives centre near -10
# Starred values were filed as active, the others as inactive; i = inactive; ? = inconclusive; nt = no result given; & = joins results of further samples; [ ] = remark or other dose. % is scaled to controls: 0 for no effect and ±100 for the full control effect; potency is read from the fitted curve at half-maximal effect.
SMILES,VACV Venus inh,Vaccinia mCherry
COc1ccc(OCC(O)Cn2c(=N)n(CCN3CCCCC3)c3ccccc32)cc1 (configuration not stated),-20%,-27%
Cc1ccc(S(=O)(=O)N2CCCC2C(=O)O)cc1 (configuration not stated),-7%,i
COc1ccc(-c2cn3nc(N4CCC(C(=O)Nc5cccc(C)c5C)CC4)sc3n2)cc1,-8%,-2%
O=C(CC1C(=O)NCCN1C/C=C/c1ccccc1)NCCc1cnccn1 (configuration not stated),-10%,i
O=C(CC1C=Cc2ccccc2N1C(=O)c1ccccc1)c1ccccc1 (configuration not stated),-19%,-10%
COc1ccc(NC(=O)CSc2nncs2)cc1OC,2%,-3%
COc1cccc(/C=C2/CN(C)CC3=C2OC(N)=C(C#N)C3c2cccc(OC)c2)c1 (configuration not stated),0%,nt
O=C(CCOc1ccccc1)N1CCCC(Nc2ccccc2)C1 (configuration not stated),-14%,-5%
Cc1cc(-n2ccc(=O)[nH]c2=O)nc(-c2ccccc2)n1,-15%,i
CC(C)(C)n1nnnc1C(c1ccccc1)N1CCc2ccccc2C1 (configuration not stated),-23%,nt

# Compounds from the list above with sulfur (three):
SMILES,VACV Venus inh,Vaccinia mCherry
Cc1ccc(S(=O)(=O)N2CCCC2C(=O)O)cc1 (configuration not stated),-7%,i
COc1ccc(-c2cn3nc(N4CCC(C(=O)Nc5cccc(C)c5C)CC4)sc3n2)cc1,-8%,-2%
COc1ccc(NC(=O)CSc2nncs2)cc1OC,2%,-3%

# Single values from the results shown:
# Vaccinia mCherry with COc1ccc(NC(=O)CSc2nncs2)cc1OC is entered as -3%
# VACV Venus inh with O=C(CC1C(=O)NCCN1C/C=C/c1ccccc1)NCCc1cnccn1 (configuration not stated) is entered as -10%
# VACV Venus inh with COc1ccc(-c2cn3nc(N4CCC(C(=O)Nc5cccc(C)c5C)CC4)sc3n2)cc1 is entered as -8%

# Next results follow:
SMILES,VACV Venus inh,Vaccinia mCherry
CC1(C(=O)N/N=C/c2ccc([N+](=O)[O-])o2)CC1(Br)Br (configuration not stated),6.3µM*,?
COCCNC(=O)C(C)Oc1ccc(Cl)cc1Cl (configuration not stated),-17%,-18%
O=C(CCc1ccccc1)Nc1ccccc1,-3%,-5%
Nc1nc2ccccc2n1C(=O)c1ccc(F)cc1,-12%,i
Cc1cc(Cn2nnnc2-c2ccncc2)cc(C)c1O,-21%,-11%
Cc1ccc(C(=O)NCC(=O)OCC(=O)N2CCCc3ccccc32)cc1,-1%,-12%
O=C(Nc1ccc(Oc2cccnc2)cc1)c1ccc([N+](=O)[O-])cc1,-14%,i
CCOC(=O)C1(Cc2ccccc2C)CCCN(C(=O)c2ccc3nccnc3c2)C1 (configuration not stated),-9%,-26%
CCN(CC)S(=O)(=O)c1ccc(C)c(N=C=S)c1,-4%,2%
Cc1cc(NC(=O)CCCN2C(=O)/C(=C/c3ccccc3Cl)SC2=S)no1,-4%,i
O=[N+]([O-])c1cc([N+](=O)[O-])c(Oc2cc(F)cc(F)c2F)cc1NN1CCCCC1,-17%,?
Cc1ccc(NC(=O)COC(=O)CC2CCCC2)cc1F,-7%,i
Cc1ccc2[nH]c3c(=O)n(Cc4ccccn4)cnc3c2c1,-18%,i
CCCc1c(-c2ccc(O)cc2)nn(-c2ccc(O)cc2)c1-c1ccc(O)cc1,-14%,i
Cc1cc(C)n(CC(=O)N2CCCC(C(=O)c3cccc(OC(C)C)c3)C2)n1 (configuration not stated),-19%,-4%
COc1ccc(N2CC(C(=O)N[C@@H](C)C(=O)NC3CCCCC3)CC2=O)cc1 (some centres not stated),-7%,i
COc1ccc(CN2C(=O)CSCC2(C)C(=O)Nc2c(C)cccc2C)cc1 (configuration not stated),?,-8%
CCCCNC(=O)c1[nH]c(C2CCNCC2)nc1-c1cccc(C(F)(F)F)c1,-20%,?
COc1ccc(CNC(C)C2COc3ccccc3O2)c(OC)c1 (configuration not stated),-6%,nt
CC(Cc1ccccc1)N(C)CC1C(=O)C2CCC1C2 (configuration not stated),-7%,-13%
COC(=O)c1ccc(NC(=O)CN(Cc2ccccc2)S(=O)(=O)c2ccc(Cl)cc2)cc1,-13%,-21%
COc1ccc(-c2csc(NC(=O)CSc3nc(C)cs3)n2)cc1,?,?
O=C(NC(=S)Nc1cccc2cc(O)ccc12)c1ccco1,-10%,?
CN1CCN(C(=O)c2ccc(CSc3ccc(Cl)cc3)cc2)CC1,-10%,-9%
Cc1cccc(CNC(=O)c2cnc3c(-c4cccc(C)c4)c(C)nn3c2C)c1,-2%,-2%
CC(=O)Nc1cc(-c2ccccc2F)cn2c(-c3cccc(C(F)(F)F)c3)cnc12,6%,26%
Cc1ccc(-n2c(N)c(C#N)c(-c3ccccc3)c(C#N)c2=O)cc1,-25%,nt
CN(C)CC1CCCCC1OC(=O)c1ccc(S(=O)(=O)N(C)c2ccccc2)cc1 (configuration not stated),-6%,?
O=C(COc1ncnc2ccc(Br)cc12)N1CCOCC1,-13%,-13%
Oc1ccc2c(c1)OC(c1ccc(O)c(O)c1)C(O)C2 (configuration not stated),0%,i
O=C(O)c1cc2ccccc2c2cc(Br)ccc12,-15%,0%
Cn1c(-c2cccc3ccccc23)n[nH]c1=S,-1%,-6%
CCOc1ccc(N2CC(C(=O)NCCN3C(=O)S/C(=C\c4cccnc4)C3=O)CC2=O)cc1 (configuration not stated),-7%,i
CCOC(=O)Cc1cc(OC)c(OC)cc1Cc1cc(OC)c(OC)cc1CC(=O)OCC,-20%,?
CCCNC(=O)C(Cc1ccccc1F)NC(=O)c1ccccn1 (configuration not stated),-6%,i
COc1cccc(C2=CC(=O)C[C@H](c3ccc(F)cc3)C2)c1,-18%,i
O=C(CCCCCBr)N1CCC(CC2CC(c3ccc(Cl)cc3)=NO2)(C(=O)NCC2CCCCC2)CC1 (configuration not stated),-21%,-10%
Cc1cccc(N2CCN(C(=O)CN3C(=O)COc4ccc(S(=O)(=O)N5CCCC5)cc43)CC2C)c1 (configuration not stated),-4%,-10%
O=C(OCCCN=C1NS(=O)(=O)c2ccccc21)c1cccs1,-1%,i
CC(C)C(=O)Nc1ccc(N2CCN(S(C)(=O)=O)CC2)cc1,-7%,-15%
Cc1nnc(SC2CC(=O)N(c3ccccc3)C2=O)s1 (configuration not stated),-14%,nt
Cc1ccc(Cn2c(C)c(C(=O)NCC(C)C)sc2=O)cc1,5%,i
CCSc1nnc(NC(=O)c2cc(-c3ccc(C)c(C)c3O)n[nH]2)s1,-6%,i
CC(C)(C)N(Cc1ccccc1)C(=O)COC(=O)CCN1C(=O)C2CC=CCC2C1=O (configuration not stated),-3%,-14%
CC(C)NC(=S)N1CCn2c(nc3ccccc32)C1,-5%,-8%
Cc1cc(NC(=O)c2ccco2)ccc1NC(=O)Cc1cccs1,-5%,nt
COc1ccccc1N(CC(=O)N1CCN(c2ccc(F)cc2)CC1)S(=O)(=O)c1ccc(C)cc1,-5%,-2%
C/C(=N\NC(=O)Cc1ccc([N+](=O)[O-])cc1)c1cccnc1,-8%,-12%
CN1C(=O)N(C)C2C1NC(=O)N2C (configuration not stated),-24%,-27%[1.46 µM]
C[C@H]1CC[C@]2(NC1)O[C@H]1C[C@H]3[C@@H]4CC[C@H]5C[C@@H](O)CC[C@]5(C)[C@H]4CC[C@]3(C)[C@H]1[C@@H]2C,-8%,-17%

# An excerpt from above in order of formula weight, lowest first.
SMILES,VACV Venus inh,Vaccinia mCherry
CC(C)NC(=S)N1CCn2c(nc3ccccc32)C1,-5%,-8%
C/C(=N\NC(=O)Cc1ccc([N+](=O)[O-])cc1)c1cccnc1,-8%,-12%
Cc1nnc(SC2CC(=O)N(c3ccccc3)C2=O)s1 (configuration not stated),-14%,nt
Cc1ccc(Cn2c(C)c(C(=O)NCC(C)C)sc2=O)cc1,5%,i
COc1ccccc1N(CC(=O)N1CCN(c2ccc(F)cc2)CC1)S(=O)(=O)c1ccc(C)cc1,-5%,-2%

# The results go on:
SMILES,VACV Venus inh,Vaccinia mCherry
CCC(C)NC(=O)c1ccc(CSc2nc3ccncc3n2Cc2ccc(F)cc2)cc1 (configuration not stated),-15%,-2%
Cc1cc(NS(=O)(=O)c2ccc(C(C)C)cc2)no1,-14%,-15%
Cc1ccc(NC(=O)C(C)N2C(=O)c3ccccc3C2=O)cc1S(=O)(=O)N1CCOCC1 (configuration not stated),-9%,-14%
CC(=O)N1C(=S)NC(=O)/C1=C1/C(=O)N(CC(=O)Nc2cccc(C)c2)c2ccccc21,-2%,-7%
CCOc1ccc(Sc2cc(C(=O)NC(C)CC)c3ccccc3n2)cc1 (configuration not stated),1%,-7%
Cc1ccc(Cn2nnc3c(=O)[nH]c(C4CCCN(S(=O)(=O)c5ccccc5)C4)nc32)cc1 (configuration not stated),-19%,i
CC(C)n1ncc2c(C(=O)N3CCN(S(=O)(=O)c4cccc(F)c4)CC3)cc(C3CC3)nc21,-8%,-12%
CC(C)N1CCN(Cc2ccccc2C(F)(F)F)CC1CCO (configuration not stated),0%,-14%
CCN(CCCNC(=O)CSc1cc(=O)n(C)c2ccccc12)c1ccccc1,-12%,-15%
Cc1ccc(CN2CCN(/N=C/c3cc([N+](=O)[O-])ccc3Cl)CC2)cc1,1%,nt
CC(C)(C)NC(=O)C[C@H]1C[C@H](C(=O)N2CCCCC2)[C@@]2(C)c3[nH]c4cc(-c5ccco5)ccc4c3CCN2C1=O,?,-15%
Cc1cccn2c(=O)c(C(=O)NCc3ccc(F)cc3)c(O)nc12,-2%,-8%
COc1cc(NC(=S)NC(=O)c2cc(C)cc(C)c2)ccc1NC(=O)c1cccs1,-17%,-15%
CC(CN1CCCCC1)OC(=O)Cc1ccc(Cl)cc1 (configuration not stated),-11%,-12%
Cc1csc(=NC(=O)c2ccccc2)n1CCO,-18%,i
CC1=C([N+](=O)[O-])C(c2ccc(Cl)cc2)NC(=O)N1 (configuration not stated),5%,-13%
O=C1CN(C(=O)/C=C/c2ccco2)c2ccccc2N1,-8%,-3%
CC(NC(=O)CN(C)CC(=O)Nc1cccc(F)c1)c1ccccc1 (configuration not stated),-9%,i
COc1ccc(/C=C(\NC(=O)c2ccc(C)cc2)C(=O)NCCN2CCOCC2)cc1,-10%,i
COC(=O)c1[nH]c2c(c1C)C(=O)CC(c1ccc(OC)cc1)C2 (configuration not stated),4%,1%

# The last 3 entries of the section above lead into the next.
SMILES,VACV Venus inh,Vaccinia mCherry
CC(NC(=O)CN(C)CC(=O)Nc1cccc(F)c1)c1ccccc1 (configuration not stated),-9%,i
COc1ccc(/C=C(\NC(=O)c2ccc(C)cc2)C(=O)NCCN2CCOCC2)cc1,-10%,i
COC(=O)c1[nH]c2c(c1C)C(=O)CC(c1ccc(OC)cc1)C2 (configuration not stated),4%,1%
CCOc1c2ccc(C(=O)N[C@H](C)C3CCCCC3)cc2nn1CCOC,-16%,-1%
Cc1ccc(C(O)c2ncc(-c3cccc4ccccc34)[nH]2)c(C)c1 (configuration not stated),-10%,18%
CCCCN(CCCNC(=O)C1CCN(S(=O)(=O)N2CCOCC2)CC1)Cc1ccccc1,-1%,nt
Cc1noc(C)c1C(=O)Nc1ccc(F)c(F)c1,-22%,nt
CCN(CC)S(=O)(=O)c1ccc2c(c1)c(=O)c(C(=O)N1CCN(c3cc(C)ccc3C)CC1)cn2C,-15%,-17%
CC1CCCC(NC(=O)COC(=O)CCSc2ccccc2)C1C (configuration not stated),-6%,-2%
CCc1nnc(NC(=O)c2cc(S(=O)(=O)N(C)c3ccc(OC)cc3)ccc2Cl)s1,-14%,-13%
COc1ccc(CSc2nnnn2C)cc1F,-15%,-15%
COCCCNS(=O)(=O)c1ccc(Oc2ncc(C(F)(F)F)cc2Cl)cc1,-25%,-16%
FC(F)C(F)(F)Oc1cccc(-c2n[nH]c(=S)n2Cc2ccccc2)c1,-7%,i
COc1ccc(SC[C@H](Cc2ccccc2)N2CC[C@@H](NC(=O)OCc3ccccc3)CCC2=O)cc1,?,-23%&-3%
O=C(CCc1nnc(CCCCc2ccccc2)o1)NCCC1CCCCO1 (configuration not stated),-9%,0%
CCOc1ccc(N(CC(=O)O)S(=O)(=O)c2ccc(F)cc2)cc1,-5%,-4%
CC(C)CCNC(=O)c1ccc(Cn2c(SCC(N)=O)nc3ccccc3c2=O)cc1,4%,0%
COc1ccc(/C=N\NS(=O)(=O)c2ccc(C)cc2)cc1COc1ccccc1[N+](=O)[O-],-9%,-10%
Cc1ccc(C)c(N2C(=O)CN=C2Nc2ccccc2Cl)c1,13%,13%
CCOCC(=O)Nc1ccc(F)c(F)c1,19%,3%
Cc1nc2ccc(S(=O)(=O)Nc3cccc(-c4nc5cccnc5s4)c3)cc2s1,1%,25%
CCCCN1CCC(COC(=O)c2cc(Cl)c(N)c3c2OCCO3)CC1,-12%,i
COc1ccc(S(=O)(=O)Nc2ccccc2C(=O)N2CCOCC2)cc1OC,4%,-9%
O=C(Cn1cncn1)N/N=C/c1ccccc1O,-25%,?
Cc1n[nH]c(C)c1S(=O)(=O)N1CCN(C2CCCCC2)CC1,-3%,nt

# Screens (PubChem BioAssay)
